# NOMO-1 viab = NOMO-1 AML cell viability reduction, primary screen, STK33 inhibitor project, CellTiter-Glo luminescence | NOMO-1 AML viability, 72 h | inhibition, % (concentration not given with the values) | 37,000 tested, 7.5% active | AID 2330, 2010;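 active means most replicates above 80%; inconclusive means exactly half above 80%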;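 further: wells of about 30 µL received 25 nL stock; 0% = median of vehicle wells and 100% = reference inhibitor level; the first replicate is given; inactives centre near 10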
# Numbers without * were called inactive; ? = inconclusive. This is a subset; the hit share may differ from the screen's.
SMILES,NOMO-1 viab
COc1cc(NC(=O)COc2ccc(Br)cc2)ccc1NC(=O)c1cc2ccccc2o1,10
COc1ccc(S(=O)(=O)Nc2ccc3c(c2)C(=O)N([C@@H](C)CO)C[C@@H](C)[C@@H](CN(C)S(=O)(=O)c2ccc(F)cc2)O3)cc1,30
CCCN(CCC)S(=O)(=O)c1ccc(C(=O)NN)cc1,34
C[C@@H]1CN([C@H](C)CO)C(=O)Cc2cc(NC(=O)Cn3cnnn3)ccc2O[C@@H]1CN(C)S(C)(=O)=O,9
C[C@H]1CN([C@@H](C)CO)C(=O)c2cc(NC(=O)CCN3CCOCC3)ccc2O[C@@H]1CN(C)Cc1ccc(Cl)c(Cl)c1,10
CC1(C)CC[C@]2(C(=O)O[C@@H]3O[C@H](CO)[C@@H](O)[C@H](O)[C@H]3O)CC[C@]3(C)C(=CCC4[C@@]5(C)CC[C@H](O[C@@H]6O[C@H](C(=O)O)[C@@H](O)[C@H](O)[C@H]6O)C(C)(C)C5CC[C@]43C)C2C1 (some centres undefined),115*
c1ccc(C2(Cn3ccc4ccccc43)OCCO2)cc1,42
Cc1noc(C)c1NC(=O)Nc1ccc2c(c1)CC(=O)N([C@@H](C)CO)C[C@H](C)[C@H](CN(C)Cc1ccncc1)O2,-10
COc1ccc(S(=O)(=O)Nc2ccc3c(c2)C(=O)N([C@H](C)CO)C[C@@H](C)[C@@H](CN(C)Cc2ccc(Cl)c(Cl)c2)O3)cc1,116*
COc1ccc(NC(=O)CN(c2cc(Cl)c(Cl)cc2Cl)S(C)(=O)=O)c(OC)c1,-7
Cc1ccc(-c2cc(C(=O)NCCCn3ccnc3)no2)cc1,21
Cc1noc(C)c1NC(=O)Nc1cccc2c1O[C@H](CN(C)Cc1ccc(Cl)c(Cl)c1)[C@H](C)CN([C@H](C)CO)C2=O,-6
COc1ccc(NC(=O)CN2CCN(S(=O)(=O)c3ccc(C)cc3C)CC2)cc1,3
CC(C)OC(=O)c1cc(N)c2c(-c3ccc(F)cc3)c(-c3cccs3)sc2n1,43
C[C@@H]1CCCCO[C@@H](CN(C)C(=O)Cc2ccccc2)[C@@H](C)CN([C@H](C)CO)C(=O)c2cc(NC(=O)Cc3ccccc3)ccc2O1,11
O=C(O)CCNc1ncnc2sc3c(c12)CCCC3,33
COc1ccc(CN(C)C[C@H]2Oc3c(NS(=O)(=O)c4ccccc4)cccc3C(=O)N([C@H](C)CO)C[C@@H]2C)cc1,-12
C[C@H]1CN([C@@H](C)CO)C(=O)Cc2cc(NS(=O)(=O)c3ccc(F)cc3)ccc2O[C@H]1CN(C)C(=O)Nc1ccc(F)cc1,8
COc1ccc(CN(C)C[C@H]2Oc3ccc(NS(=O)(=O)c4ccc(F)cc4)cc3C(=O)N([C@H](C)CO)C[C@@H]2C)cc1,4
COc1ccc(NC(=O)Nc2ccc3c(c2)CC(=O)N([C@H](C)CO)C[C@@H](C)[C@H](CN(C)C(=O)Nc2ccc(OC)cc2)O3)cc1,2
COc1cccc(-c2nc(SCC(=O)Nc3cccc(C(F)(F)F)c3)[nH]c(=O)c2C#N)c1,-7
COc1ccc(NC(=O)N(C)C[C@H]2Oc3ccc(NC(=O)c4ccncc4)cc3CC(=O)N([C@@H](C)CO)C[C@H]2C)cc1,36
C[C@@H]1CCCCO[C@@H](CN(C)Cc2ccccc2)[C@@H](C)CN([C@H](C)CO)C(=O)c2cc(N(C)C)ccc2O1,-11
C[C@H]1CN([C@@H](C)CO)C(=O)Cc2cc(NC(=O)C3CC3)ccc2O[C@@H]1CN(C)C(=O)NC1CCCCC1,0
C[C@@H]1CCCCO[C@@H](CN(C)C(=O)c2ccccc2)[C@@H](C)CN([C@H](C)CO)C(=O)c2cc(NC(=O)CCCCCC(=O)Nc3ccccc3N)ccc2O1,16
SMILES,NOMO-1 viab
Cc1onc(-c2c(F)cccc2Cl)c1C(=O)Nc1cccc(Cn2cccn2)c1,18
C[C@@H]1CCCCO[C@@H](CN(C)C(=O)C2CCCCC2)[C@@H](C)CN([C@H](C)CO)C(=O)c2cc(NC(=O)CCC(F)(F)F)ccc2O1,4
Cc1cc(I)ccc1NC(=O)CN(c1ccccc1F)S(C)(=O)=O,11
Cc1ccccc1-c1nnc(SCC(=O)Nc2ccc(Br)c(C)c2C)n1C,-2
C[C@@H]1CCCCO[C@@H](CN(C)Cc2ccc(Cl)c(Cl)c2)[C@@H](C)CN([C@H](C)CO)C(=O)c2cc(NC(=O)NC3CCCCC3)ccc2O1,112*
Cc1ccc(NS(=O)(=O)c2cc(C(=O)NCC3CCCO3)ccc2Cl)cc1C (centres undefined),10
O=C1C=C(SCC(=O)c2ccccc2)SC(c2ccc(Cl)cc2)C1 (centres undefined),?
CNC[C@H]1OCCCC[C@@H](C)Oc2ccc(NC(=O)C3CCCCC3)cc2C(=O)N([C@H](C)CO)C[C@@H]1C,7
C[C@H](CO)N1C[C@H](C)[C@@H](CN(C)S(=O)(=O)c2ccc(F)cc2)Oc2c(NS(=O)(=O)c3ccccc3)cccc2C1=O,11
C[C@@H]1CN([C@H](C)CO)C(=O)c2cccc(NC(=O)c3ccc(-c4nccs4)cc3)c2O[C@H]1CN(C)C(=O)Nc1ccc(F)cc1,8
COC(=O)c1ccc(OCC(=O)Nc2cc(OC)ccc2OC)c(OC)c1,5
C=CCNC(=S)Nn1c(C)nnc1-n1nc(C)cc1C,-3
C[C@@H]1CN([C@@H](C)CO)C(=O)c2cccc(NC(=O)C3CCOCC3)c2O[C@@H]1CN(C)C(=O)NC1CCCCC1,-4
Cc1cc(Cl)c(S(=O)(=O)Nc2ccc(F)cc2)cc1OCC(N)=O,-4
COc1ccc(NC(=O)Nc2ccc3c(c2)C(=O)N([C@@H](C)CO)C[C@H](C)[C@H](CN(C)S(C)(=O)=O)O3)cc1,-12
CN(C)c1nc(NC(C)(C)C)nc(SCC(=O)Nc2ccccc2)n1,36
CC(C)NC(=O)Nc1cccc2c1O[C@H](CN(C)S(=O)(=O)c1ccc(F)cc1)[C@@H](C)CN([C@H](C)CO)C2=O,13
O=C(CSc1n[nH]c(-c2ccco2)n1)c1c[nH]c2ccccc12,6
Cc1cc(C)c(NC(=S)NC(=O)c2ccccc2)c(C)c1,63
CC(C)(O)CCCC(C)(O)c1ccc(C(=O)O)cc1O (centres undefined),4
Cc1noc(C)c1NC(=O)N(C)C[C@@H]1Oc2ccc(NC(=O)Nc3cccc4ccccc34)cc2CC(=O)N([C@H](C)CO)C[C@H]1C,19
CC(=O)Nc1ccccc1NS(=O)(=O)c1ccccc1[N+](=O)[O-],5
N#Cc1c(-c2ccccc2Cl)cc(C2CC2)nc1N,3
C[C@@H]1CN([C@@H](C)CO)C(=O)c2cc(NC(=O)CCCCCC(=O)Nc3ccccc3N)ccc2O[C@@H]1CN(C)C(=O)NC1CCCCC1,-4
COc1ccc(S(=O)(=O)N(C)C[C@@H]2Oc3ccc(NS(=O)(=O)c4ccccc4)cc3CC(=O)N([C@@H](C)CO)C[C@@H]2C)cc1,-4

# A different layout for part of the listing above:
smiles	NOMO-1 viab
O=C(CSc1n[nH]c(-c2ccco2)n1)c1c[nH]c2ccccc12	6
CC(C)NC(=O)Nc1cccc2c1O[C@H](CN(C)S(=O)(=O)c1ccc(F)cc1)[C@@H](C)CN([C@H](C)CO)C2=O	13

# Next compounds follow:
SMILES,NOMO-1 viab
N#Cc1ccc(C=NCCN2CCNC2=O)cc1,1
O=C(COc1ccccc1Br)NCc1cccnc1,-8
CCOc1ccc(/C=C(\NC(=O)c2ccccc2)C(=O)NC)c2ccccc12,10
C[C@@H]1CN([C@H](C)CO)C(=O)c2cccc(NC(=O)Nc3ccc(C(F)(F)F)cc3)c2O[C@@H]1CN(C)C(=O)Nc1ccc(F)cc1,72
Cc1ccc(S(=O)(=O)N(C)C[C@@H]2Oc3ccc(NC(=O)NC4CCCCC4)cc3C(=O)N([C@@H](C)CO)C[C@H]2C)cc1,33
COc1ccc(NC(=O)CC2Sc3ccc(C(F)(F)F)cc3NC2=O)c(OC)c1 (centres undefined),30
CO[C@@H]1CC(OC2CCC3(C)C(CCC45CCC(C6=CC(=O)OC6)C(C)(CCC43)C5=O)C2)O[C@H](C)[C@@H]1O[C@@H]1O[C@H](CO[C@@H]2O[C@H](CO)[C@@H](O)[C@H](O)[C@H]2O)[C@@H](O)[C@H](O)[C@H]1O (some centres undefined),119*
Cc1ccc(C(=O)Nc2cccc(NC(=O)COc3ccc(Br)cc3)c2)cc1,18
CC(C)NC(=O)N(C)C[C@H]1Oc2c(NC(=O)c3cnccn3)cccc2C(=O)N([C@H](C)CO)C[C@H]1C,12
CN(CC(=O)N1CCC(C(N)=O)CC1)S(=O)(=O)c1ccc(F)cc1,-6
Cc1noc(C)c1NC(=O)Nc1ccc2c(c1)CC(=O)N([C@@H](C)CO)C[C@H](C)[C@@H](CN(C)C(=O)Nc1c(C)noc1C)O2,10
O=C(NCCCN1CCCC1=O)Nc1ccc(Cl)cc1,14
Cc1ccc(S(=O)(=O)Nc2cccc3c2O[C@H](CN(C)C(=O)Nc2cccc4ccccc24)[C@@H](C)CN([C@@H](C)CO)C3=O)cc1,23
CSc1ncc(Cl)c(C(=O)Nc2sc3c(c2C(=O)NCc2ccco2)CCC3)n1,11
C[C@H](CO)N1C[C@H](C)[C@@H](CN(C)S(=O)(=O)c2cccs2)Oc2ccc(NS(=O)(=O)c3ccccc3)cc2C1=O,-5
C[C@H](CO)N1C[C@H](C)[C@H](CN(C)S(=O)(=O)c2ccc(F)cc2)Oc2ccc(NC(=O)c3ccncc3)cc2C1=O,10
OC(COc1ccc2ccccc2c1)Cn1cncn1 (centres undefined),-3
C[C@H]1CN([C@@H](C)CO)C(=O)c2cc(NC(=O)CCN3CCOCC3)ccc2O[C@H]1CN(C)Cc1ccc(Cl)c(Cl)c1,9
C[C@@H]1CN([C@H](C)CO)C(=O)c2cc(NC(=O)C3CC3)ccc2O[C@@H]1CN(C)S(=O)(=O)c1cn(C)cn1,-1
Cc1ccc(C)n1-c1ccc(C(=O)OCC(=O)c2ccc(Cl)cc2)cc1,121*
C[C@@H]1CCCCO[C@@H](CN(C)Cc2ccc(Cl)c(Cl)c2)[C@@H](C)CN([C@H](C)CO)C(=O)c2cc(NS(=O)(=O)c3cn(C)cn3)ccc2O1,31
C[C@H](CO)N1C[C@H](C)[C@H](CN(C)C(=O)Nc2ccc3c(c2)OCO3)Oc2ccc(NS(=O)(=O)c3cccs3)cc2CC1=O,12
C=C1C(=O)O[C@@H]2C[C@H](C)[C@@]3(O)C[C@H](O)[C@@](C)(C[C@@H](OC(=O)C(C)C)[C@@H]12)O3,119*
C=C1C(NC)CCC23CC24CCC2(C)C(C(C)N(C)C(C)=O)C(O)CC2(C)C4CCC13 (centres undefined),18
O=C(CSc1nc2c(c(-c3ccccc3)n1)CCCCC2)N1N=CCC1c1ccccc1 (centres undefined),-19
SMILES,NOMO-1 viab
Cn1c(SCC(=O)c2ccc(Br)cc2)nnc1-c1cc2ccccc2o1,10
O=S(=O)(c1ccc(Cl)cc1)N1CCN(CC(O)COc2ccc3ccccc3c2)CC1 (centres undefined),2
Cc1noc(C)c1NC(=O)Nc1cccc2c1O[C@H](CN(C)C(=O)Nc1cccc3ccccc13)[C@@H](C)CN([C@H](C)CO)C2=O,13
C[C@H]1CN([C@@H](C)CO)C(=O)Cc2cc(NC(=O)CCC(F)(F)F)ccc2O[C@@H]1CN(C)C(=O)NC1CCCCC1,15
Cc1ccc(-c2nc3ncccc3o2)cc1NC(=O)COc1ccc(Br)cc1,32
C[C@@H]1CN([C@H](C)CO)C(=O)Cc2cc(NC(=O)Nc3ccc4c(c3)OCO4)ccc2O[C@@H]1CN(C)CC1CCCCC1,42
C[C@@H]1CN([C@@H](C)CO)C(=O)c2cc(NC(=O)NC3CCCCC3)ccc2O[C@H]1CN(C)S(=O)(=O)c1cccs1,7
Cc1noc(C)c1NC(=O)N(C)C[C@H]1Oc2ccc(NS(=O)(=O)c3ccc(F)cc3)cc2CC(=O)N([C@H](C)CO)C[C@H]1C,-7
C[C@@H]1CN([C@@H](C)CO)C(=O)c2cc(NC(=O)CCC(F)(F)F)ccc2O[C@@H]1CN(C)Cc1ccc2c(c1)OCO2,8
C[C@H](CO)N1C[C@H](C)[C@H](CN(C)Cc2ccc(C(F)(F)F)cc2)Oc2ccc(NC(=O)Cc3cn(C)c4ccccc34)cc2CC1=O,?
COc1ccc(NC(=O)N(C)C[C@@H]2Oc3ccc(NS(C)(=O)=O)cc3C(=O)N([C@@H](C)CO)C[C@H]2C)cc1,28
COc1ccc(NC(=O)Nc2ccc3c(c2)C(=O)N([C@@H](C)CO)C[C@@H](C)[C@@H](CN(C)C(=O)Nc2ccccc2)O3)cc1,-1
O=C(NC(C(=O)O)C12CC3CC(CC(C3)C1)C2)c1ccc(F)cc1 (centres undefined),-8
C[C@H]1CN([C@@H](C)CO)C(=O)Cc2cc(NS(=O)(=O)c3cccs3)ccc2O[C@@H]1CN(C)CC1CC1,8
CCn1c2ccccc2c2cc(NC(=O)CN(C)S(=O)(=O)c3ccccc3)ccc21,42
C[C@H](CO)N1C[C@H](C)[C@@H](CN(C)Cc2ccc(Oc3ccccc3)cc2)Oc2ccc(NC(=O)C3CCCCC3)cc2C1=O,45

# 6 entries from above, arranged by SMILES length, largest number first:
SMILES,NOMO-1 viab
C[C@H](CO)N1C[C@H](C)[C@H](CN(C)Cc2ccc(C(F)(F)F)cc2)Oc2ccc(NC(=O)Cc3cn(C)c4ccccc34)cc2CC1=O,?
Cc1noc(C)c1NC(=O)N(C)C[C@H]1Oc2ccc(NS(=O)(=O)c3ccc(F)cc3)cc2CC(=O)N([C@H](C)CO)C[C@H]1C,-7
C[C@H](CO)N1C[C@H](C)[C@@H](CN(C)Cc2ccc(Oc3ccccc3)cc2)Oc2ccc(NC(=O)C3CCCCC3)cc2C1=O,45
C[C@@H]1CN([C@H](C)CO)C(=O)Cc2cc(NC(=O)Nc3ccc4c(c3)OCO4)ccc2O[C@@H]1CN(C)CC1CCCCC1,42
O=C(NC(C(=O)O)C12CC3CC(CC(C3)C1)C2)c1ccc(F)cc1 (centres undefined),-8
Cn1c(SCC(=O)c2ccc(Br)cc2)nnc1-c1cc2ccccc2o1,10
